# TRPV1 potentiator = enhances activation of the human vanilloid receptor TRPV1. Q8NER1. AID 540277. TRPV1-expressing cells, Fluo-8 calcium influx, capsaicin EC20 potentiation; host cell line not named in the record; control for the full effect not named in the record. 0.02% of 320,000 active. potentiation, % at 8.33 µM; active means potentiation above 80%; inconclusive means 30% to 80%; inactive means below 30%; further: 0% is about no effect
#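 Fluo-8 calcium influx in TRPV1-expressing cells, kinetic read (ex 480/em 520 nm). Compound added and read 3 min for agonist activity, followed by capsaicin at EC20 final and 2 min further read for enhancement.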
# Sfp inh = Sfp phosphopantetheinyl transferase inhibition. Biochemical Sfp PPTase activity, qHTS. Potency, µM, for the others: max response, negative = inhibition, actives largely listed as inhibitors. 3.5% of 310,000 active; active means well fitted inhibition curve with a large enough effect; inconclusive means small, poorly fitted or top-dose-only effect, or another doubt; inactive means no such curve, though single readings can be large or run the other way;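 further: the enzyme is Sfp with the accession as filed and its product quenches rhodamine fluorescence; potency means the concentration at half of the fitted maximal effect; 0% = enzyme reaction without inhibitor and -100% = no enzyme wells; top concentration of the series not given in the record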
#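 Buffer: 50 mM Hepes-Na pH 7.6, 10 mM MgCl2, 0.01% Nonidet P-40, 0.01% BSA. Enzyme 15 nM, pre-exposed to compound 15 min; substrates then added and fluorescence change tracked over 30 min.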
# TRPML1 agonist = activates the human TRPML1 channel; Q9GZU1; TRPML1-expressing cells, Ca2+ dye fluorescence, FDSS; host cell line not named in the record; reference of the full effect not given here; activation, % (test concentration not listed); 0.12% of 410,000 active; AID 624414; in the data active = activation above about 50%; inconclusive = about 30% to 50%; inactive = below about 30%; further: 0% is about no effect; the text of the record puts the active cut at 80%
# Target sequence (Q9GZU1 whole entry, looked up): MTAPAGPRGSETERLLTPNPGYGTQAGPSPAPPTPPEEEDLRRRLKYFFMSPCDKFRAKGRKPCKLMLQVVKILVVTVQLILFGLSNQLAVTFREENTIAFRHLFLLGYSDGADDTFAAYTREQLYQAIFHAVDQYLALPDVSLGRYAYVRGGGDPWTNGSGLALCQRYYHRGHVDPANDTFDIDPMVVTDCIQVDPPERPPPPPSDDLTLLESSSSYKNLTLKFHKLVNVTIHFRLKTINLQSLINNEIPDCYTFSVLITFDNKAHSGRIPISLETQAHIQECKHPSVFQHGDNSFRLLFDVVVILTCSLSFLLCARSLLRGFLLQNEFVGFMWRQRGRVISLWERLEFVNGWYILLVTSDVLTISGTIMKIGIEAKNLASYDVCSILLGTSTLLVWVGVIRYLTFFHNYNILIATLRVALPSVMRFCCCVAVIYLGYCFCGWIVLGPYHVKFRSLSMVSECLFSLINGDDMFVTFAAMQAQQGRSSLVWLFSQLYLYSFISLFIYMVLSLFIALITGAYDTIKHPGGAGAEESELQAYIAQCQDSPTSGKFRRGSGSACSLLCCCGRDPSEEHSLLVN
#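 In this qHTS format, compounds were pin-transferred onto Ca8-dye-loaded TRPML1-DL cells induced with Tet overnight, and intracellular Ca2+ fluorescence was recorded kinetically for 110 s after a 10 s baseline. A subsequent 4uM final 54-4 (EC80) addition followed by a second 110 s read served as the antagonist phase.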
# PINK1 expr mod = modulators of PINK1 expression | Potency, µM (highest dose often 76.6 µM), inactives show at the highest dose activation (PINK1 increase), hits mostly activators | 0.2% of 410,000 active | PINK1 immunofluorescence, high-content cytometry, 24 h; active = well fitted activation curve with a large enough effect; inconclusive = small, poorly fitted or top-dose-only effect; inactive = flat fitted curve, though single readings scatter; cell line not stated here;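 further: potency means the concentration at half of the fitted maximal effect; % of control where 0% means no effect; nearly all actives have a fitted effect of over 65% in size; a mitochondrial uncoupler was the plate control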
#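 Stable cell line, 250 cells/well, 12 h attachment; compounds pinned at 5 concentrations, 24 h; CCCP control. Fixed with nuclear dye, primary antibodies 12 h at 10 degrees C, secondary plus cell stain; laser-scanning cytometer read.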
# Menin MLL FP FL = menin-MLL binding inhibition, fluorescein peptide; Fluorescence polarization, fluorescein-MLL peptide displacement from menin; FP activity change, % at 61.4 µM; 290,000 tested, under 10 active; AID 1766; inconclusive = falling polarisation curve, or a change in total fluorescence; inactive = total fluorescence flat and polarisation flat or rising; no compound was filed as active; the % refers to the polarisation; negative = inhibition;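 further: % of control where 0% means no effect; inhibitors lower the polarisation; unlabelled MLL peptide was the positive control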
# TRPML1 inh = human mucolipin-1 channel inhibition | activity change, negative = inhibition, % (no concentration beside the values) | 0.02% of 390,000 active | Q9GZU1 | TRPML1-inducible cells, Ca2+ dye fluorescence, FDSS; active compounds read low; inhibition of EC80 agonist-evoked calcium signal | AID 624415; in the data active means activity change below about -50%; inconclusive means about -30% to -50%; inactive means above about -30%;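 further: stimulus is agonist 54-4 at its EC80 concentration; on the % scale 0 is the no-effect control and ±100 the full control effect; compound concentration not given in the record; the text of the record puts the active cut at -80%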
#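 Calcium fluorescence in TRPML1-DL cells induced overnight with Tet: a 110 s read after compound pin addition, then a 110 s antagonist read after challenge with 54-4 at 4 uM final (EC80).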
# ClpP mod = qHTS Assay for Activators of ClpP; purified B. subtilis ClpP, FRET peptide cleavage, 20 min; ATP-dependent Clp protease proteolytic subunit (Bacillus subtilis (strain 168)), P80244; 1.9% of 340,000 active; Potency, µM (highest dose often 57.5 µM), inactives show at the highest dose activity change, negative = active; active = well fitted falling curve with a large enough effect; inconclusive = small, poorly fitted or top-dose-only effect; inactive = no such curve, though single readings can be large or run the other way; further: potency means the concentration at half of the fitted maximal effect; the source files actives as falling curves though it sought activators and does not explain the sign; nearly all actives have a fitted effect of over 65% in size; many hits overshoot -100%
# Target sequence (P80244 whole entry, looked up): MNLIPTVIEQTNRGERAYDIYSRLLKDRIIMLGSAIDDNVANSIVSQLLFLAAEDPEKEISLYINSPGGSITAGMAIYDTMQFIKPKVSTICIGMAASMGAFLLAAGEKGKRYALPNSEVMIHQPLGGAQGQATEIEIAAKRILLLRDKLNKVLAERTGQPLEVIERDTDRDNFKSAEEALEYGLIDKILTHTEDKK
#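 Buffer: 100 mM Tris/HCl pH8, 100 mM KCl, 0.05% low protease BSA, 2.5% glycerol, 0.01% Tween-20. ClpP 10 microg/mL final; 20 min RT; delta FRET normalized to ADEP and DMSO controls.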
# Active calls of the source: *; u = inconclusive; x = not tested or not shown; [ ] = remark or other dose. Rows were taken by chance (roughly 4.4% active in at least one column).
SMILES | TRPV1 potentiator | Sfp inh | TRPML1 agonist | PINK1 expr mod | Menin MLL FP FL | TRPML1 inh | ClpP mod
CCN(CC)CCNC(=O)c1c(O)c2c([nH]c1=O)CCCC2 | -5 | 2% | -0.5 | x | -1.8 | -6 | -17%
C=CCN(C(=O)Nc1ccc(OC)cc1)c1nnc(-c2ccncc2)s1 | -11 | 13% | 1.1 | 0.7% | 1.7 | -14 | x
COc1ccc(-c2nc(C)c(CCNC(=O)c3ccc(C(F)(F)F)cc3)s2)cc1OC | x | x | 4.8 | 1.9% | x | 73 | u
CCO[C@@H]1OC(C(=O)N2CCN(C)CC2)=C[C@H](C2CCCCC2)[C@H]1CCCO | 21 | 20% | -0.1 | 1.5% | -1.1 | u | 0.7%
COc1ccc(CN2CC(C(=O)NCCCN3CCCCC3)CC2=O)cc1 (configuration not stated) | 14 | 8% | -0.4 | -0.3% | 3.4 | -2 | 0.9%
CC(C)(C)c1ccc2cccc(F)c2n1 | x | x | -0.6 | 1.9% | x | x | -0.9%
CC(=O)c1cnc(Nc2ccc(C)cc2)s1 | 4 | 11% | -0.3 | 2.8% | -0.3 | 22 | x
Cc1cccc(NC(=O)CNC(=O)Cn2cc(C(F)(F)F)cc(Cl)c2=O)c1C | -11 | x | 0.0 | 1.7% | x | -4 | x
CC(C)CNC(=O)CSc1nc2scc(-c3ccccc3)c2c(=O)[nH]1 | 27 | 7% | -0.4 | 5.2% | 4.2 | 5 | 22µM*
Cc1csc(C(=O)O)c1NC(=O)c1cccc([N+](=O)[O-])c1 | -1 | -15% | -0.1 | 2.1% | 1.4 | 2 | x
CCC1(C(=O)OC)NC(c2ccco2)C2C(=O)N(c3ccc(C)cc3)C(=O)C21 (configuration not stated) | 9 | 9% | 0.2 | -0.3% | 3.6 | 0 | 0.3%
O=C(c1cccc(Cl)c1)N1CCCC(C(=O)N2CCN(c3ccccc3)CC2)C1 (configuration not stated) | -2 | 3% | -0.5 | 1.7% | 7.9 | -13 | -0.5%
Cc1cccc(OCC(=O)N/N=C/c2ccccc2C(=O)O)c1 | -2 | 14% | 1.6 | 0.1% | -4.9 | -11 | x
COc1ccccc1OCC(=O)N/N=C(\C)c1ccc2ccccc2c1 | x | x | 0.5 | 5.1% | x | 4 | 0.1%
CC(=O)Nc1ccc(C2=NN(c3ccccc3)C(c3ccccc3)C2)cc1 (configuration not stated) | u | -7% | 1.9 | u | -7.9 | 11 | x
CCCCC(=O)NC(c1ccc(Cl)cc1)c1ccc2cccnc2c1O (configuration not stated) | x | x | 0.2 | 5.8% | x | 8 | x
CSC1=C(C#N)C(=O)NC(c2ccc(Cl)cc2)S1 (configuration not stated) | -8 | -14% | 0.4 | -1.7% | -1.4 | 4 | x
CCOC(=O)N1CCN(CCC(=O)Nc2cc([N+](=O)[O-])ccc2OC)CC1 | -14 | 9% | 0.0 | 0.2% | -0.7 | -4 | 1.0%
Cc1cc2cc(CNS(=O)(=O)c3ccc4ccccc4c3)ccc2n1C | 27 | -24% | 0.3 | 6.1% | -22 | 3 | -1.5%
CC(C)CN(c1ccccc1)S(=O)(=O)c1nnc(NC(=O)C2CCCCC2)s1 | x | x | -0.1 | -0.5% | x | -19 | -3.3%
CCOc1ccc([N+](=O)[O-])c(N)c1 | -1 | -9% | 0.8 | 7.1% | 0.2 | -10 | -1.1%
CSc1nnc(-c2cc3ccccc3cc2O)n1C | 2 | -2% | -0.2 | 3.4% | -0.8 | 2 | -21%
O=C(CCS(=O)(=O)c1ccccc1)NCc1ccccc1 | 0 | 7% | 0.3 | -1.0% | x | -9 | -2.3%
Nn1c(CSc2nc3ccccc3o2)nnc1CSc1nc2ccccc2o1 | 9 | 2% | -0.3 | -0.6% | -0.6 | 23 | 0.2%
O=C(Nc1ccnn1C1CCN(Cc2c[nH]c3ccccc23)CC1)c1ccccc1 | 0 | 23% | 0.2 | 0.7% | -2.9 | -19 | -2.1%
CCn1c(SCC(=O)OC(C)C)nnc1-c1ccccc1OC | 4 | 14% | 0.2 | -0.2% | 0.0 | 13 | -0.7%
CC(C)Oc1ccc(C(=O)NCC(=O)Nc2ccc3c(c2)CCC3)cc1 | -18 | x | 0.4 | 5.7% | x | 10 | 0.4%
O=S(=O)(c1cccc(-c2nnc(SCc3ccc(Cl)cc3)o2)c1)N1CCCCC1 | -1 | 15% | -0.1 | 1.4% | 0.5 | -11 | -1.7%
CCOc1ccccc1NC(=S)N(Cc1cc2ccc(C)cc2[nH]c1=O)CC1CCCN1CC (configuration not stated) | -7 | -20% | 0.2 | 0.4% | 5.8 | 1 | -6.7%
CC1CCCN(C(=O)c2cccc(S(=O)(=O)Nc3cc(C(F)(F)F)ccc3Cl)c2)C1 (configuration not stated) | -16 | 22% | 0.3 | 1.2% | 15 | 5 | -1.0%
CCS(=O)(=O)N1CCN(C(=O)c2cccs2)CC1 | -2 | 4% | -0.7 | 2.7% | 1.8 | 11 | 1.0%
Nc1c(C(=O)c2ccc(Cl)cc2)oc2ccccc12 | -2 | 7% | 0.2 | -0.6% | 1.2 | 26 | -1.9%
N#Cc1cccc(NC(=O)C2CCN(S(=O)(=O)c3ccc4[nH]c(=O)ccc4c3)CC2)c1 | x | x | 0.3 | -3.9% | x | 3 | -12%
CN(CC(=O)Nc1cccc(S(=O)(=O)N2CCCCC2)c1)Cc1ccc(F)cc1 | -11 | x | 1.2 | -0.9% | x | 33 | 0.3%
COc1cccc(-c2csc(NC(C)=O)n2)c1 | 12 | -13% | -0.4 | 6.6% | -1.4 | 22 | -1.9%
CCC(C)[C@H](NC(=O)C1CC(=O)N(c2ccc(OC)cc2)C1)C(=O)NC1CCCC1 (some centres not stated) | -4 | 4% | 0.2 | 0.2% | x | 14 | 0.8%
COc1cccc(NC(=O)C2CCN(c3nc4ccccc4nc3C(F)(F)F)CC2)c1 | x | x | -0.4 | 6.0% | x | 2 | 0.6%
COC(=O)N1C(=O)[C@@](c2ccccc2)(C2CCCC2)N1C(=O)OC | 20 | -1% | -0.4 | 0.6% | -4.0 | -2 | -1.0%
Cc1cnc(NC(=O)c2ccc(F)c(S(=O)(=O)N3CCOCC3)c2)s1 | -21 | x | -0.3 | -1.1% | x | 15 | -22%
COc1ccc(CN2C(=O)C(CC(=O)NCCN3CCOCC3)CC(C(=O)N3CCCCCC3)=C2C)cc1 (configuration not stated) | x | x | 0.4 | 0.9% | x | x | 2.4%
COc1ccc2nc(NC(=O)C(NS(=O)(=O)c3cccs3)C(C)C)sc2c1 (configuration not stated) | 29 | -2% | 0.1 | 2.1%[38.3 µM] | -0.6 | -3 | -3.8%
COc1ccccc1/C=C/CN1CCC(Oc2ccc(C(=O)N3CCCC3)cc2)CC1 | 17 | 8% | -0.6 | 3.5% | -3.2 | 3 | -10.0%
O=C(Nc1nnc([C@H]2C[C@H](O)[C@@H](CO)O2)s1)c1cccc(Cl)c1 | x | x | -0.5 | 1.9% | x | x | -3.5%
CC(NC(=O)CSc1nc2ccccc2c(=O)[nH]1)c1ccccc1 (configuration not stated) | -3 | 18% | 1.1 | -1.0% | 1.6 | -12 | -9.1%
COC(=O)c1cc(NC2c3ccccc3C(=O)N2CCN2CCOCC2)cc(C(=O)OC)c1 (configuration not stated) | -9 | 3% | -0.6 | 1.7% | 1.8 | 10 | -4.9%
CCOC(=O)c1oc2nc3c(cc2c1N)COC(C)(C)C3 | 19 | 17% | -0.2 | -0.8% | -1.7 | -2 | u
CCOC(=O)c1c(NC(NC(=O)C(C)C)C(Cl)(Cl)Cl)sc2c1CCC2 (configuration not stated) | 1 | u | 3.2 | u | 2.3 | -12 | -0.7%
Cn1cnnc1SCC(=O)Nc1ccc2nc(SCc3cccc4ccccc34)sc2c1 | 8 | -3% | 0.3 | 3.8% | 0.2 | -1 | 3.4%
CC1(C)CC(=O)C=C(OC(=O)c2ccc(Cl)cc2)C1 | -9 | 13% | 0.1 | 0.1% | 1.7 | 5 | 0.3%
CCC(C)NC(=O)CSc1n[nH]c(-c2cc(Cl)ccc2OC)n1 (configuration not stated) | 5 | 2% | -0.8 | -0.5% | -2.1 | -3 | x
O=C(COc1ccc(Cl)cc1)Nc1nnc(C2=COCCO2)o1 | 11 | 2% | 1.9 | 2.9% | -2.5 | 2 | x
O=C(NCCCN1CCN(c2ccccc2F)CC1)c1ccc2nc(CCc3ccccc3)oc2c1 | x | x | 3.5 | 1.0% | x | 2 | 1.9%
CCOC(=O)N1CCC(NC(=O)c2cnn(-c3cccc(C)c3)c2-n2cccc2)CC1 | x | x | 2.9 | -2.1% | x | 7 | 1.0%
Cc1cc(-c2nnc(SCC(=O)Nc3ccccc3Cl)n2C)no1 | -1 | 5% | 0.1 | -0.5% | 6.6 | 3 | x
COc1ccc(N2CCN(C(=O)c3cc4c(s3)-c3ccccc3S(=O)(=O)C4)CC2)cc1 | 26 | 2% | 0.0 | -0.9% | 0.0 | -2 | x
COc1cc(OC)cc(-n2nnnc2SCC(=O)N2CCCC2)c1 | 5 | 19% | -0.3 | 2.6%[38.3 µM] | -0.1 | 1 | -0.8%
Cc1cccc(N2CCN(C(=O)c3cn(C)c(=O)c4c3c3ccccc3n4C)CC2)c1C | 4 | -26% | -0.2 | 3.7%[38.3 µM] | -7.9 | -10 | u
O=C(c1cc(-c2ccccc2)nc2ccccc12)N1CCN(c2ccccc2O)CC1 | 6 | 5% | -0.5 | 1.0% | x | -9 | 1.3%
O=C(N/N=C/c1c[nH]c2ccccc12)c1ccccc1 | -10 | 5% | x | -0.1% | -9.5 | x | 0.5%
COc1ccc(CCNC(=O)COC(=O)CCC(=O)c2ccc(F)cc2)cc1 | 5 | -4% | 0.1 | 3.3% | 5.2 | -2 | x
C/C(=N/n1cnnc1)c1cccnc1 | 16 | 1% | 0.9 | 3.4% | 0.7 | -1 | -2.2%
Cc1cccc(OCC(=O)Nc2ccccc2C(=O)N2CCOCC2)c1 | -4 | -1% | -0.2 | 1.8% | x | 1 | -24%

# At a glance, 2 of the compounds above:
SMILES | TRPV1 potentiator | Sfp inh | TRPML1 agonist | PINK1 expr mod | Menin MLL FP FL | TRPML1 inh | ClpP mod
CCN(CC)CCNC(=O)c1c(O)c2c([nH]c1=O)CCCC2 | -5 | 2% | -0.5 | x | -1.8 | -6 | -17%
C=CCN(C(=O)Nc1ccc(OC)cc1)c1nnc(-c2ccncc2)s1 | -11 | 13% | 1.1 | 0.7% | 1.7 | -14 | x

# Screening results: PubChem BioAssay, National Center for Advancing Translational Sciences (NCATS)
